FGF22 binding: FGF22 (human) thermal shift binding | Q9HCT0 | recombinant FGF22 thermal shift, SYPRO orange fluorescence; percent of sucrose octasulfate shift, DMSO zero | calls only at 9.99 µM | hit rate 1.5% among 340,000 | AID 651658;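 active means melting point raised past a set limit in the mean and every replicate; inconclusive means no clear call; three in four hits are not shown here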
Target sequence (Q9HCT0 whole entry, looked up): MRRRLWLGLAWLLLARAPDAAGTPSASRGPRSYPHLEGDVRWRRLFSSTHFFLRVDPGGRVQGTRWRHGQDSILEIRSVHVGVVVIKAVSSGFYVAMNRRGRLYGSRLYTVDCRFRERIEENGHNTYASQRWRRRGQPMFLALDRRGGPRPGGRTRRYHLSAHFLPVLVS
MLL AF4-AF9 inh: inhibitors of human MLL-AF4/AF9 interaction | hit rate 0.47% among 350,000 | inhibition, % at 10 µM | AlphaScreen, biotin-AF4 peptide binding to FLAG-AF9;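 active means every replicate reaching a set inhibition limit, whatever the replicate mean, cut at about 25% in these data; inconclusive means mean inhibition reaches that limit but some replicates miss it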;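 further: 0% = plate neutral control median and 100% = total signal loss; the record names both 10 and 1 µM as test concentration; the first replicate is given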
E coli growth: inhibitors of Escherichia coli growth; OD600, 23 h; stronger effect = lower value; OD600 absorbance (test concentration not listed); hit rate 0.21% among 330,000; AID 1053175;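 active means OD600 absorbance below the run mean of sample wells minus 3.6 SD, in any replicate, cut at about 0.56 in these data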;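 further: stock transfer was 300 nL into about 60 µL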
ALR inh: human ALR oxidase inhibition via reduced H2O2 | purified ALR, DTT oxidation, H2O2 HRP-luminol luminescence | inhibition, % (test concentration not listed) | hit rate 3.8% among 290,000 | AID 485317;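 active means mean and each replicate at 75% or more; inconclusive means only one of the two met; inactive means neither met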;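 further: stock transfer was 7.5 nL into about 7.5 µL; 0% = neutral wells and 100% = wells with inactivated enzyme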
Target sequence (P55789 whole entry, looked up): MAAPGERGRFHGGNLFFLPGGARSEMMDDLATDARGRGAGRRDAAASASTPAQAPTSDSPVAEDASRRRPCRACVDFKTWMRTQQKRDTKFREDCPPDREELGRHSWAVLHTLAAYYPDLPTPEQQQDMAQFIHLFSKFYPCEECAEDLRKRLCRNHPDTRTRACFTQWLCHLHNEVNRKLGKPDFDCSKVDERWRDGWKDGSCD
HNF4A DNA FP: change in binding of human HNF4 alpha to DNA. P41235. HNF4a-FITC DNA binding, fluorescence polarization, 1 h. activity change, % at 10 µM. hit rate 0.3% among 360,000. AID 1224865; in the data active means activity change above about 30%, passing the limit was not always enough;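 further: controls were the assay level and a saturating level of protein; the project sought stronger binding though the title names inhibitors; some compounds called inactive have numbers as strong as hits; positive values seem to mean higher polarization but the record does not say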
Target sequence (P41235 whole entry, looked up): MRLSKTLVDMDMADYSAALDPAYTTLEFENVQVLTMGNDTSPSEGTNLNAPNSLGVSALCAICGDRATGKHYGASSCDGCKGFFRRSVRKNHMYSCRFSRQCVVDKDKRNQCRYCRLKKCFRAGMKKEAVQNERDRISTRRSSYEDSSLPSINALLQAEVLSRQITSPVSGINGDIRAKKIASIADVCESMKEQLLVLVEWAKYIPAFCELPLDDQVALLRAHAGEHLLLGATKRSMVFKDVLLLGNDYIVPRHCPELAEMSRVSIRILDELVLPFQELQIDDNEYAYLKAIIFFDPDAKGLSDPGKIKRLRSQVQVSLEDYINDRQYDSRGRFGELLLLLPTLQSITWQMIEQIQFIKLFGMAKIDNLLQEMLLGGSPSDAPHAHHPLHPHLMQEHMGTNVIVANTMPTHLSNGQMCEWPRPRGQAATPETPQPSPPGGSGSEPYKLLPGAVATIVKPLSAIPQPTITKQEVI
Vif A3G: inhibitors of Vif binding to APOBEC3G peptide, primary screen, biochemical, TR-FRET, GST-Vif 1-94, biotin-A3G peptide, dose response retest (AID 1117319); inhibition, %, or IC50 in µM where a hit was titrated; hit rate 0.57% among 260,000; TR-FRET GST-Vif / biotin-A3G peptide binding; higher % means a stronger effect; test concentration not given here; strong numbers were not always called active;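 active means above the screen mean plus three standard deviations and confirmed in dose response; inconclusive means results disagree or hit not tested in dose response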;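 further: Vif residues 1-94 fused to GST binding biotinylated APOBEC3G peptide 110-148; 0% = full assay without inhibitor and 100% = GST in place of GST-Vif; retest series ran down from 100 µM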
rRNA inh HTS: inhibitors of bacterial rRNA selective over humanized ribosomes. E. coli WT GFP vs humanized-ribosome RFP mutants, fluorescence, 24 h; stronger effect = lower value; DMSO median 0, no signal -100. GFP signal change (wild-type ribosome), % (test concentration not listed). hit rate 1.6% among 350,000;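 active means significant combined selectivity score with lowered wild-type GFP, culture density cut under 30%, mutant RFP and density less affected; inactive means any of these conditions unmet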; further: one replicate is shown; some compounds called inactive have numbers as strong as hits
rRNA inh HTS OD600: second read-out of rRNA inh HTS, no call of its own (marks repeat the call); OD600 change, %; measured here: OD600 growth;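 optical density of the mix in the first replicate; 0 = DMSO median and -100 = no signal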
rRNA inh HTS RFP: also measured in rRNA inh HTS; calls as there; RFP signal change, %; measured here: RFP humanized mutant strains;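 first replicate; 0 = DMSO median and -100 = no signal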
Numbers without * were called inactive; i = inactive; u = inconclusive; x = not tested or not shown; & = joins results of further samples. The list is partial, so the mix of outcomes need not match the whole.

SMILES	FGF22 binding	MLL AF4-AF9 inh	E coli growth	ALR inh	HNF4A DNA FP	Vif A3G	rRNA inh HTS	rRNA inh HTS OD600	rRNA inh HTS RFP
[O-]/C(=C(\C(=S)Nc1ccc(Cl)cc1)[n+]1ccccc1)c1ccc(OC(F)F)cc1	i	2.5	0.63	27	2.7	2%	4	0	0.2
O=C(O)Cc1sc(-c2cccnc2)nc1-c1ccc(Br)cc1	i	-1.2	0.69	2	0.4	2%	-7	-13	-5.7
CN(Cc1ccccc1)C(=O)c1cc2ccccc2o1	i	-1.3	0.7	13	-2.2	24%	-8	-11	8.4
Cn1nc(SCc2ccccc2)c(=O)n(C(c2ccccc2)c2ccccc2)c1=O	i	1.1	x	x	2.1	-4%	7	13	-1.2
Cc1ccc(-c2nc3ccccc3nc2-c2ccccc2)cc1	i	-1.5	0.65	10	2.4	x	-11	-4	-1.9
Cc1cccc(C)c1NC(=S)N(CCN1CCCCCC1)Cc1ccco1	i	-0.6	0.7	-22	-3.7	26%	4	-3	12
COCCn1nnnc1C(c1cccc(OC)c1OC)N1CCN(C2CCCCC2)CC1 (centres undefined)	x	x	0.7	-3	-0.7	-1%	x	x	x
Cn1cccc1C(=O)N1CCN(S(=O)(=O)c2ccccc2)CC1	i	0.4	0.69	-3	-2.0	4%	9	9	-1.7
CCOc1ccc(Oc2cc(N)cc([N+](=O)[O-])c2)cc1	i	0.1	0.66	3	0.3	u	3	-3	2.9
O=C(Nc1ccnn1C1CCN(C2CCC2)CC1)c1ccccc1Cl	i	0.1	x	-5	4.6	x	23	12	1.6

Overlap with the part before: 2 compounds, followed by the next part.
SMILES	FGF22 binding	MLL AF4-AF9 inh	E coli growth	ALR inh	HNF4A DNA FP	Vif A3G	rRNA inh HTS	rRNA inh HTS OD600	rRNA inh HTS RFP
CCOc1ccc(Oc2cc(N)cc([N+](=O)[O-])c2)cc1	i	0.1	0.66	3	0.3	u	3	-3	2.9
O=C(Nc1ccnn1C1CCN(C2CCC2)CC1)c1ccccc1Cl	i	0.1	x	-5	4.6	x	23	12	1.6
CC1(c2ccco2)NC(=O)NC1=O (centres undefined)	x	x	0.74	3	-2.7	33%	x	x	x
C[C@@H]1CN([C@@H](C)CO)C(=O)c2cccc(NS(=O)(=O)c3ccc(F)cc3)c2O[C@H]1CN(C)C(=O)Nc1ccc(F)cc1	i	-5.0	x	x	x	x	-4	7	-0.7
CCOc1c(C(=O)CC)cc2c(C)cc(=O)oc2c1C	x	x	0.69	-28	-2.2	3%	x	x	x
O=C(C1CCN(c2nnc(N3CCCC3=O)s2)CC1)N1CCN(c2cccc(C(F)(F)F)c2)CC1	i	-1.6	0.65	-12	-4.1	x	-7	-11	-3.8
C[C@H]1CN([C@@H](C)CO)C(=O)c2cc(-c3ccccc3F)cnc2O[C@@H]1CN(C)Cc1cccc(C(=O)O)c1	i	-6.0	x	x	x	x	2	11	-2.4
Cc1ncc(C(=O)O)c(C(=O)O)c1N	i	-0.7	0.66	-1	-1.8	13%	11	8	0.2
COc1ccc2oc(C(=O)Nc3nnc(C)s3)c(C)c2c1	i	1.0	0.72	2	-1.3	x	25	13	2.7
Cc1nn(C)c(C)c1/C=C1/SC(=S)NC1=O	i	4.1	0.66	62	2.7	3%	-2	-26	-9.2
C[C@@H]1CN([C@H](C)CO)C(=O)c2cc(NC(=O)NC3CCCCC3)ccc2O[C@@H](C)CCCCO[C@@H]1CN(C)S(=O)(=O)c1ccccc1	i	-0.2	x	x	x	x	-1	-6	-2.7
COc1cc2c(c(OC)c1OC)CCc1cnoc1-2	i	-0.4	0.65	-151	0.5	0%	-1	2	0.5
O=c1[nH]cnc2ccsc12	i	0.0	0.68	-4	1.1	9%	10	9	-2.0
Cc1cccc(NC(=O)NNC(=O)c2ccccn2)c1	i	0.9	0.68	36	4.8	x	10	2	-3.9
Cc1ccc(C)c(S(=O)(=O)Nc2cc3c4c(c2)CC(=O)N4CCC3)c1	x	-2.6	0.6	-1	2.4	-1%	-8	-22	1.2
COc1ccc(C(=O)Nc2nc3ccccc3[nH]2)cc1	i	3.8	0.66	-9	3.3	x	4	-1	-1.1
Cc1ccc2nc(/C(C#N)=C/c3ccccc3C(=O)O)[nH]c2c1	i	1.3	0.71	x	7.8	-3%	0	6	2.1
Cc1ccc(S(=O)(=O)Nc2ccc3c(c2)C(=O)N([C@H](C)CO)C[C@H](C)[C@H](CN(C)C(=O)Nc2ccc(F)cc2)O3)cc1	i	-1.3	x	x	x	x	0	2	0.0
O=C(Nc1nc(-c2ccccc2)cs1)C1CCCCN1S(=O)(=O)c1ccc(Cl)cc1 (centres undefined)	i	14	0.78	0	1.6	-1%	1	-4	-5.8
C[C@@H]1CCCCO[C@H](CN(C)C(=O)c2ccccc2)[C@@H](C)CN([C@H](C)CO)C(=O)c2cc(NS(=O)(=O)c3ccc(F)cc3)ccc2O1	i	-0.6	x	x	x	x	1	-7	-0.4
CCCn1cc(CN2CCC(C(=O)Nc3cccc(-c4cscn4)c3)CC2)c(C)n1	i	3.1	0.6	-1	1.0	3%	-9	5	-2.5
CCc1nnc(NC(=O)Cn2nc(-c3ccccc3OC)ccc2=O)s1	x	x	0.73	-6	1.2	-13%	x	x	x

Continued, starting with the last four of the part before.
SMILES	FGF22 binding	MLL AF4-AF9 inh	E coli growth	ALR inh	HNF4A DNA FP	Vif A3G	rRNA inh HTS	rRNA inh HTS OD600	rRNA inh HTS RFP
O=C(Nc1nc(-c2ccccc2)cs1)C1CCCCN1S(=O)(=O)c1ccc(Cl)cc1 (centres undefined)	i	14	0.78	0	1.6	-1%	1	-4	-5.8
C[C@@H]1CCCCO[C@H](CN(C)C(=O)c2ccccc2)[C@@H](C)CN([C@H](C)CO)C(=O)c2cc(NS(=O)(=O)c3ccc(F)cc3)ccc2O1	i	-0.6	x	x	x	x	1	-7	-0.4
CCCn1cc(CN2CCC(C(=O)Nc3cccc(-c4cscn4)c3)CC2)c(C)n1	i	3.1	0.6	-1	1.0	3%	-9	5	-2.5
CCc1nnc(NC(=O)Cn2nc(-c3ccccc3OC)ccc2=O)s1	x	x	0.73	-6	1.2	-13%	x	x	x
COCC(C)NCc1cccc2ccccc12 (centres undefined)	i	-0.2	0.63	-18	2.2	3%	10	8	0.1
O=C(COC(=O)[C@@H]1CCCN1S(=O)(=O)c1ccc(Cl)cc1)NC12CC3CC(CC(C3)C1)C2	x	x	0.67	x	-2.6	2%	x	x	x
C[C@H]1CN([C@@H](C)CO)C(=O)c2cc(N(C)C)ccc2O[C@H]1CN(C)C(=O)Nc1ccccc1	i	-1.7	x	x	x	x	5	10	0.5
CN1CCN(C(=O)C[C@H]2C=C[C@H](NC(=O)Cc3ccccn3)[C@H](CO)O2)CC1	i	-3.1	x	x	x	x	1	2	0.2
C[C@H](CO)N1C[C@H](C)[C@@H](CN(C)C(=O)Nc2ccc(C(F)(F)F)cc2)Oc2ccc(NS(=O)(=O)c3ccccc3)cc2C1=O	i	-2.4&2.0	x	0	-7.1	x	-11&11	-18&11	1.9&2.7
CCS(=O)(=O)N1CCCCN2[C@H](C1)[C@H](c1ccc(C#Cc3ccccn3)cc1)[C@@H]2CO	i	16	x	x	x	x	-5	-1	-3.6
Cc1nonc1N1CCN(Cc2cn[nH]c2-c2ccc(F)cc2F)CC1	x	0.8	0.66	-6	-2.0	-9%	3	-3	-1.9
Cc1ccc(S(=O)(=O)NCC[C@H]2CC[C@@H](NC(=O)c3cccc(F)c3)[C@H](CO)O2)cc1	i	-0.9	x	x	x	x	-2	-1	-2.5
CCCC(=O)n1nc(-c2ccccc2)nc1N	x	x	0.72	5	-4.2	5%	x	x	x
COCC#Cc1cnc2c(c1)C(=O)N([C@@H](C)CO)C[C@H](C)[C@H](CN(C)C(=O)c1cccnc1)O2	i	-3.9	x	x	x	x	0	-4	-3.6
COCCNc1oc(/C=C/c2ccc(F)cc2)nc1S(=O)(=O)c1ccccc1	i	0.2	0.69	10	-0.3	u	6	5	3.8
O=C1C2C3C=CC(CC3)C2C(=O)N1c1ccc(Br)cc1 (centres undefined)	i	-0.8	x	x	-0.5	-2%	3	4	4.7
COc1ccc(-n2nnnc2S(=O)(=O)CC(=O)N2CCCCC2)cc1	i	-4.8	0.73	98*	0.6	-4%	4	2	-4.2
CCn1cc(CNC(=O)c2ccc3nc(Cc4ccc(OC)cc4)oc3c2)cn1	i	-22	0.7	1	-2.1	x	-1	0	0.7
CCOc1ccccc1N(CC(=O)OC)S(C)(=O)=O	i	5.9	0.72	-9	4.5	-6%	8	5	-0.1
NN/C(=C\[N+](=O)[O-])Nc1ccc(Cl)cc1	i	3.9	0.69	46	0.8	14%	-60	-81	-23
O=C(OCc1ccc(COC(=O)c2cccnc2Cl)cc1)c1cccnc1Cl	i	-0.5	0.71	-9	5.1	x	4	15	-2.4
C[C@@H]1CN([C@H](C)CO)C(=O)c2cc(C#Cc3ccc(F)cc3)cnc2O[C@H]1CN(C)C(=O)Nc1ccc(F)cc1	i	-0.5	x	x	x	x	-3	-21	6.0
COc1ccc(S(=O)(=O)Nc2ccc3c(c2)C(=O)N([C@@H](C)CO)C[C@@H](C)[C@H](CN(C)C(=O)Nc2ccc(C(F)(F)F)cc2)O3)cc1	i	-0.8	x	x	x	x	-8	-17	-3.5
COc1ccc(N2CCN(C(=O)Cn3c(=O)c4cccn4c4cccnc43)CC2)cc1	i	6.5	0.7	40	-0.1	x	-10	-7	0.5
O=C(OCC(=O)N1CCCC1)c1cnc(Cl)c(Cl)c1	x	1.6	0.72	5	-1.5	4%	10	15	-1.2
CCOC(=O)Cc1ccc(NC(=O)c2cccc([N+](=O)[O-])c2)cc1	i	-1.6	0.64	-4	-0.8	6%	9	6	-1.0
O=C1NC(c2ccccc2)CCC1(Cl)Cl (centres undefined)	x	x	0.65	-1	1.9	-1%	x	x	x
CN1CCCC(OC(=O)c2ccc3c(c2)OCCO3)C1 (centres undefined)	x	-3.3	0.74	x	0.3	4%	x	x	x
CN1c2ccc(-c3ccccc3)cc2[C@H]2[C@H](CCN2C(=O)Cc2cccnc2)[C@@H]1CO	i	1.8	x	x	x	x	-4	-9	-2.1
COc1ccc(S(=O)(=O)NCCC(C)C)cc1C	x	x	0.64	-1	4.8	7%	x	x	x
Cn1ccnc1SCC(=O)Nc1cc(S(=O)(=O)N2CCOCC2)ccc1Cl	x	x	0.71	98*	-1.2	1%	x	x	x
CCOC(=O)N/N=C/C=C/c1ccccc1	x	x	x	-16	0.7	-5%	x	x	x
CC(C)CC#Cc1cnc2c(c1)C(=O)N([C@@H](C)CO)C[C@@H](C)[C@H](CN(C)CC1CCOCC1)O2	i	-1.4	x	x	x	x	5	2	-3.4
O=C(Nc1cccc(S(=O)(=O)N2CCCCC2)c1)c1ccc(Cl)nc1	i	0.1	0.69	x	4.9	x	-24*	-14*	2.2*
Cc1ccc(C(C(=O)NC2CCCCC2)N(CC2CCCO2)C(=O)CCCC(=O)Nc2ccccn2)cc1 (centres undefined)	i	-1.4	0.69	-3	-0.5	x	-1	3	0.9
CN1C(=O)c2cc(NC(=O)Nc3ccccc3)ccc2OC[C@H]2O[C@H](CC(=O)NC3CCC3)CC[C@H]21	i	-1.9	x	x	x	x	-4	-6	-1.2
O=C(O)CSCC(=O)N1CCN(c2cc(C(F)(F)F)nc3ccccc23)CC1	i	-0.5	0.69	-10	-2.3	1%	0	5	2.4

Source: PubChem BioAssay
